Source: PubChem BioAssay (several laboratories)
CBX7 AlphaScr = blocks human CBX7 binding to H3K27me3 peptide; O95931; AlphaScreen His6-CBX7 / biotin-H3K27me3 peptide binding; stronger effect = lower value; normalised signal (fraction of DMSO) (test concentration not listed); 1.1% of 66,000 active; AID 1224903; in the data active means normalised signal below about 0.5;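 further: 100 nL library stock added to about 20 µL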
Target sequence (O95931 whole entry, looked up): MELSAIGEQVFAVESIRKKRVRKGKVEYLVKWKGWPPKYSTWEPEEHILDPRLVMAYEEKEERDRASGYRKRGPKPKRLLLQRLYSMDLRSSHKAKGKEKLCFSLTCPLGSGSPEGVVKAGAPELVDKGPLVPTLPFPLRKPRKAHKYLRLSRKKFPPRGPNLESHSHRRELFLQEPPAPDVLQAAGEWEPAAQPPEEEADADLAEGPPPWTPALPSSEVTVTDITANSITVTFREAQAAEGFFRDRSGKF
CBX7 AlphaScr z-score = second read-out of CBX7 AlphaScr, no call of its own (marks repeat the call); z-score; measured here: z-score of CBX7 signal; some inactives read as strong as hits; reference of the scale not given here;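 same signal on another scale; lower means less binding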
Numbers without * were called inactive; & = joins results of further samples; ! = not active in a repeat. This is a subset, so the mix of outcomes need not match the whole.

compound	CBX7 AlphaScr	CBX7 AlphaScr z-score
CCC(C)Nc1ncnc2sc3c(c12)CCCC3 (configuration not stated)	0.99	-0.073
COc1ccc(-c2nnc3ccc(C(F)(F)F)cn23)cc1OC	0.95	-1.3
CCC(=O)N1CCc2cc(Br)cc(S(=O)(=O)NCC3CCCN3CC)c21 (configuration not stated)	1	1.6
CCOC(=O)c1c(NC(=O)Cn2cnc3ccccc32)sc2c1CCCC2	0.92	-1.1
CCOC(=O)c1c(C)n(CCOc2cccc(Cl)c2Cl)c2ccc(O)cc12	1	0.43
CCOc1ccc(Nc2nc(-c3ccc(Cl)cc3)nc3ccccc23)cc1	1.5	6.5
Cc1ccc(Nc2c(-c3ccc(Cl)cc3)nc3ccc(Cl)cn23)cc1	1	1.7
Cc1cccc(NC(=O)c2cc(-c3ccc(C)c(C)c3)nc3c(Cl)cccc23)c1	0.91	-1
O=C1CCc2cc(S(=O)(=O)N3CCC(C(=O)N4CCc5ccccc5C4)CC3)ccc2N1	0.94	-1.4
O=C(Nc1ccc(CN2CCOCC2)cc1)[C@@H](c1ccccc1)N1Cc2ccccc2C1=O	1.1	1.8
O=C(Nc1c(C(=O)Nc2ccc(F)cc2)oc2ccccc12)c1ccccc1	1.2	2.5
Cc1cc(C)cc(C(=O)Nc2ccc(-c3nc4ncccc4o3)cc2)c1	1.1	0.84
COc1cccc(CNc2ccc3c(c2)ncn3C)c1OC	0.86	-0.87
CCc1ccc(NC(=O)N(C2CCC(C)CC2)C2CCN(C(C)=O)CC2)cc1 (configuration not stated)	1.1	0.59
COc1ccc(NC(=O)c2cn(C)c(=O)c3cc(OC)c(OC)cc23)cc1Cl	1.2	2.6
CC(NC(=O)CC1Sc2ccccc2NC1=O)c1ccccc1 (configuration not stated)	0.99	-0.16
CCN(CCCNC(=O)CCN1C(=O)COc2ccccc21)c1cccc(C)c1	0.93	-1.5
CCOc1ccc(S(=O)(=O)NC(C)(C)C)cc1-c1nc2c(C(C)(C)C)nn(C)c2c(=O)[nH]1	0.96	-1
Cc1ccc(-c2cc(C(=O)NCc3ccc4c(c3)OCO4)c3ccccc3n2)cc1C	1.1	0.88
O=C(Cc1c(C(=O)O)[nH]c2ccc(Cl)cc12)Nc1ccc(Cl)cn1	1.1	2
O=C(CSc1nnc(CNC(=O)c2ccccc2F)o1)Nc1ccccc1F	1	0.62
CCOc1ccc(NC(=O)CCc2c(C)nc3cc(-c4ccccc4OC)nn3c2C)cc1	0.97	-1.3
O=C(CC1Nc2ccccc2NC1=O)Nc1ccc(F)cc1 (configuration not stated)	1.1	1.3
N#Cc1nc(COc2ccccc2)oc1NCc1cccnc1	0.97	-1.5
CCOc1ccc(-c2nnc(Nc3ccc(OC)c(C(=O)N4CCCCC4)c3)c3ccccc23)cc1	0.88	-0.58
O=C(Nc1nnc(N2CCCCCC2)s1)c1cc(-c2ccc(Br)cc2)on1	0.82	-0.71
COc1ccc(NC(=O)CC2Oc3ccc(C)cc3NC2=O)cc1 (configuration not stated)	1	1.9
CC1(C)CC(=O)c2cc(C(=O)Nc3ccccc3F)c(=O)n(-c3ccc(Cl)cc3)c2C1	0.94	-0.71
COc1cccc(NC(=O)c2cc(C)nn2-c2ccccc2)c1	0.95	-0.41
CCC1=Nc2cc(C(=O)NCCc3cc(OC)ccc3OC)ccc2Sc2ccc(C)cc21	0.67	-5.9

An excerpt from above in order of formula weight, largest number first.
compound	CBX7 AlphaScr	CBX7 AlphaScr z-score
O=C(Nc1nnc(N2CCCCCC2)s1)c1cc(-c2ccc(Br)cc2)on1	0.82	-0.71
COc1ccc(NC(=O)c2cn(C)c(=O)c3cc(OC)c(OC)cc23)cc1Cl	1.2	2.6
COc1cccc(NC(=O)c2cc(C)nn2-c2ccccc2)c1	0.95	-0.41

(listing goes on)
compound	CBX7 AlphaScr	CBX7 AlphaScr z-score
O=C(Cn1nc(Cc2cccnc2)c2ccccc2c1=O)N1CCN(c2ccccc2F)CC1	0.92	-1.5
CCCCN(CCCC)S(=O)(=O)c1ccc2[nH]c(=O)cc(C(=O)NCc3cccnc3)c2c1	1	0.47
CCCc1ncc(C(O)(c2ccccc2)c2ccc(C)cc2)n1C (configuration not stated)	1	0.68
CC(C)c1cc(C(=O)Nc2ccc(OC(F)(F)F)cc2)no1	1	0.1
Cc1ccc(NC(=O)c2cc(-c3ccc(O)cc3)on2)cc1C	0.98	-0.77
CCOC(=O)c1nnn(-c2nonc2N)c1CN(Cc1ccccc1)C(C)C	0.99	-0.37
Cc1ccc2cc(CCNC(=O)c3ccc(S(=O)(=O)N4CCOCC4)cc3)c(=O)[nH]c2c1	1	0.16
CC(C)(C)C(=O)Nc1nnc(Cc2ccc(F)cc2)s1	1	0.31
CC1CCN(S(=O)(=O)c2ccc3c(c2)N(CC(=O)Nc2cccc(Cl)c2)C(=O)CO3)CC1	1	0.41
CCCC(=O)N1CC(=O)Nc2ccc(Cl)cc2C1c1ccc(F)cc1 (configuration not stated)	0.89	-0.48
Cc1c(C(=O)Nc2ccccc2)sc2nc(-c3ccc(F)cc3)cn12	1.1	1.1
Cn1c(CCNC(=O)c2ccc(F)cc2)nc2ccccc21	0.91	-1.4
CCOc1ccc(C(=O)Nc2cccc(-c3nc4ncccc4o3)c2)cc1	1.1	0.41
Cc1csc(NC(=O)c2ccc(CNc3c(NC4CCCC4)c(=O)c3=O)cc2)n1	1.1	0.94
COc1ccc(NC(=O)Cn2cnc3sc(C)c(C)c3c2=O)cc1OC	0.98	-0.51
Cc1c(C(=O)N(C)Cc2ccccc2)sc2ncn(CC(=O)N3CCCCC3)c(=O)c12	1	-0.026
CCOC(=O)c1c(NC(=O)c2ccc(F)cc2)sc(C(=O)Nc2ccccc2F)c1C	1	0.49
COC(=O)c1ccc(NC(=O)CCn2nc(-c3ccc(Cl)cc3)c3ccccc3c2=O)cc1	0.94	-1.6
CCc1ccc(CNC(=O)CCCOc2cc(=O)n(C)c3ccccc23)cc1	1	0.77
Cc1cccc(C)c1NC(=O)C(NS(=O)(=O)c1ccc2c(c1)CCC(=O)N2)c1ccccc1 (configuration not stated)	1	0.78
O=C(Cn1cnc2c(nnn2Cc2ccc(F)cc2)c1=O)Nc1cccc(Cl)c1	0.88	-1.9
O=C(Nc1ccc(F)cc1F)c1cc(-c2ccc(F)cc2)on1	1.1	1.9
COc1ccccc1CNC(=O)c1cn(C2CCCCC2)c(=O)c2c1c1ccccc1n2C	0.92	-1.9
CCCN(CCC)CCNC(=O)c1cn(CC)c(=O)c2cc(OC)c(OC)cc12	1.3	2.4
CN(Cc1ccccc1)c1nc(Cc2ccccc2)nc2sc3c(c12)CCCC3	1.1	2.8
CC(C)(C)c1nc(S(=O)(=O)c2ccccc2)c(NCc2ccccc2)o1	1.1	1.5
Cc1ccc(-c2ccc(CCC(=O)O)n2-c2cccc(Br)c2)cc1	1	-0.12
CC(=O)NCCNC(=O)c1cccc(NC2=NC3CS(=O)(=O)CC3S2)c1 (configuration not stated)	0.8	-2.2
CCN(C(=O)Cc1c(C(=O)O)[nH]c2ccc(Cl)cc12)c1ccc(F)cc1	1	0.43
COc1cccc(-c2nc(CS(=O)(=O)CC(=O)NCCCN3C(C)CCCC3C)c(C)o2)c1 (configuration not stated)	1.4	3.3
COc1ccccc1-c1cc(C(=O)N2CCCCC2)no1	1	0.2
COc1cc(NC(=O)Cn2c(SCc3cccc(F)c3)nc3ccncc32)cc(OC)c1	0.98	-0.55
O=C(CN1C(=O)COc2ccc(S(=O)(=O)N3CCOCC3)cc21)N1CCc2ccccc2C1	0.98	-0.59
Cc1ccc(NC(=O)CSc2nc3nc(C)c(Cc4cc(C)ccc4C)c(C)n3n2)cc1	1.1	0.61
O=C(NC1CC1)c1ccc2c(c1)N(Cc1c(F)cccc1Cl)C(=O)CS2	1	0.97
CN(C(=O)c1cc(-c2ccc(F)cc2)on1)c1ccccc1	0.84	-0.21
Cc1cc(C)nc(Nc2n[nH]c(-c3ccccc3Cl)n2)n1	1	1.4
CC1CCN(C(=O)c2ccc3c(=O)n4c(nc3c2)CCCCC4)CC1	1	0.16
CN(C1CCCCC1)S(=O)(=O)c1ccc2c(c1)N(CC(=O)NCc1cccs1)C(=O)CS2	1	0.081
COc1cc(OC)cc(-c2nnc(NC(=O)c3ccc(S(=O)(=O)N4CCCC4)cc3)o2)c1	0.86	-3.2
O=C1CCCc2c1cc(C(=O)Nc1ccc(F)cc1)c(=O)n2-c1ccccc1	0.97	-0.11
CCOC(=O)c1c2n(c3cc(Br)c(OC)cc13)CCN(Cc1ccccc1)C2	0.91&0.98	-1.4&-0.54
CCN(CC)S(=O)(=O)c1ccc2c(c1)N(CC(=O)Nc1cc(F)ccc1F)C(=O)CS2	1	0.14
CC(C)CC(C(=O)Nc1ccc2c(c1)OCCO2)N1C(=O)c2ccccc2C1=O (configuration not stated)	0.86	-1.5
CCOC(=O)N1CCN(c2c(N3CCN(c4ccccc4OC)CC3)c(=O)c2=O)CC1	0.95	-1.3
Cc1ccnc(NS(=O)(=O)c2ccc(NC(=O)c3ccc4c(c3)OCO4)cc2)n1	1.1	0.44
COc1ccc(-c2csc(Nc3ccc4c(c3)OCO4)n2)cc1F	0.48*!	-8.2*!
Cc1cc(C)c(NC2c3ccccc3C(=O)N2c2ccccc2C)c(C)c1 (configuration not stated)	0.95	-1.8
O=C(C1CCC1)N1CCc2cc(S(=O)(=O)N3CCN(c4ccccc4F)CC3)ccc21	0.91	-3.1
O=C(CCc1nc2ccccc2[nH]1)NCCc1ccccc1	1.1	1.4
CCCC1=Nc2cc(C(=O)N3CCN(c4ccc(F)cc4)CC3)ccc2Sc2ccccc21	0.75	-13
CCCCc1ccc(-c2nc(Cc3ccccc3)no2)cc1	1.1	1.2
Nc1ccc(S(=O)(=O)Nc2nccc(/C=C/c3ccc(Cl)cc3Cl)n2)cc1	0.92	-0.35
Cc1ccccc1Cn1nc(C)c(NC(=O)c2cc(CC(C)C)on2)c1C	1	0.1
FC(F)(F)c1nc2ccccc2nc1N1CCCCC1	1.2	5.5
CCOc1ccc(C2CC(=O)c3c([nH]c(C(=O)OCCOc4ccccc4)c3C)C2)cc1 (configuration not stated)	1	0.2
COC(=O)c1cnn2c(C(F)(F)F)cc(-c3ccc(Br)cc3)nc12	1.1	1.7
O=c1oc2ccc(Br)cc2cc1-c1nc2ccccc2[nH]1	1	0.32
COc1ccc(C2(C(=O)Nc3ccccc3C)CCCC2)cc1OC	0.79	-2.5
Cc1cccc(C)c1Nc1c(-c2cccs2)nc2ncccn12	1	0.76

Carrying on.
compound	CBX7 AlphaScr	CBX7 AlphaScr z-score
COc1cc2c(cc1OC)C1C(C(=O)Nc3ccccc3F)c3ccccc3C(=O)N1CC2 (configuration not stated)	1	0.07
CC(C(=O)Nc1ccc(Br)cn1)N1C(=O)CCC1=O (configuration not stated)	1	0.11
CCC(C(=O)NC1CCCCC1)n1c(SCc2cccc(F)c2)nc2ccncc21 (configuration not stated)	0.97	-0.7
CCCCN(CCCC)S(=O)(=O)c1ccc2c(c1)CCN2C(C)=O	0.99	-0.26
O=C(CCCN1C(=O)CSc2ncccc21)NCCN1CCOCC1	1	-0.07
Clc1ccc(Nc2c(-c3ccsc3)nc3cnccn23)cc1	1	1.1
O=C(NCc1ccccc1)c1ccc2c(c1)N(Cc1ccccc1Cl)C(=O)c1ccccc1S2	1	1.2
CCOc1ccc(C(=O)Nc2ccc3nc4n(c(=O)c3c2)CCCCC4)cc1	1	1.3
CC(CCC(=O)O)C1CCC2C3CC(O)C4CC(O)CCC4(C)C3CCC12C (configuration not stated)	1	0.75
Cc1ccc(C2Nc3ccc4ncccc4c3C3=C2C(=O)CC(C)(C)C3)cc1 (configuration not stated)	1.2	4
CCC1(CC)Cc2ccccc2-c2nc(NCCCO)[nH]c(=O)c21	1	1.4
O=C(C1CCC1)N1CCc2cc(S(=O)(=O)NCCN3CCCC3)ccc21	0.95	-1.5
CCOC(=O)c1ccc(NC(=O)CN2C(=O)CNC2=O)cc1	1	0.57
Cc1oc(-c2ccccc2)nc1C(=O)NCc1cccnc1	1	1.7
CCOc1cc(C(=O)N(Cc2ccccc2)c2ccccn2)cc(OCC)c1OCC	1.1	2.1
Cc1oc(-c2ccccc2F)nc1CS(=O)(=O)CC(=O)NCCCN(C)C1CCCCC1	1.1	2.1
C#CCOc1c(Br)cc(C2NCCc3cc(OCC)c(OCC)cc32)cc1OC (configuration not stated)	0.93	-1
Cc1c(C(=O)NCCN(C)c2ccccc2)sc2ncnc(N3CCOCC3)c12	1	0.59
CCc1ccc(N(C)S(=O)(=O)c2ccc3[nH]cc(C(=O)N4CCOCC4)c(=O)c3c2)cc1	0.82	-2
c1ccc(Cc2nc3ccc4[nH]snc4c3n2)cc1	0.97	-0.84

Profiles, quoted from the list.
CC(CCC(=O)O)C1CCC2C3CC(O)C4CC(O)CCC4(C)C3CCC12C (configuration not stated) is listed with CBX7 AlphaScr: 1; CBX7 AlphaScr z-score: 0.75
Cc1c(C(=O)NCCN(C)c2ccccc2)sc2ncnc(N3CCOCC3)c12 is listed with CBX7 AlphaScr: 1; CBX7 AlphaScr z-score: 0.59
CCC(C(=O)NC1CCCCC1)n1c(SCc2cccc(F)c2)nc2ccncc21 (configuration not stated) is listed with CBX7 AlphaScr: 0.97; CBX7 AlphaScr z-score: -0.7
